Screens from PubChem BioAssay.
Vaccinia stage: blocks a specific stage of Vaccinia orthopoxvirus infection, primary screen, cell-based, single point. activity change (mCherry), % (concentration not given with the values). Vaccinia-infected cells, mCherry/Venus stage reporter fluorescence; hits give low values; some inactives read as strong as hits. actives 0.01% (n = 89,000). AID 1053133, 2014;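 active means mCherry past -33% and 40 or more points under the early reporter, replicates agreeing; inconclusive means past -33% without that gap or agreement; tested in A549 cells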;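 further: scaled between vehicle wells and reference inhibitor wells; 23 nL library stock went into each well; one replicate is shown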
Vaccinia stage Venus: further read-out of Vaccinia stage, marked with its call; activity change (Venus), %; measured here: Venus reporter, other viral stage;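 negative = less Venus signal; first of two replicates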
An asterisk follows results filed as active; ? = inconclusive; / = no result given; & = joins results of further samples. The list is partial (hit frequency here may not be typical).

SMILES	Vaccinia stage	Vaccinia stage Venus
CCNC(=O)C[C@H]1C=C[C@H](NC(=O)C2CCOCC2)[C@@H](CO)O1	-3.5	0.5
CC(C)NC(=O)Nc1cccc2c1O[C@@H](CN(C)C(=O)Nc1ccc(C(F)(F)F)cc1)[C@H](C)CN([C@H](C)CO)C2=O	6.8	2.5
COCC(=O)Nc1ccc2c(c1)C(=O)N(C)C[C@@H](OC)[C@@H](C)CN(C(C)=O)[C@H](C)CO2	1.4	2.9
O=C(C1CCOCC1)N1CC(=O)N2[C@H](CO)[C@H](c3ccc(-c4ccccc4F)cc3)[C@@H]2C1	4.9	1.8
C[C@H]1CN([C@@H](C)CO)S(=O)(=O)c2ccc(C#Cc3ccccc3)cc2O[C@@H]1CN(C)S(=O)(=O)c1cn(C)cn1	?	/
CCO[C@H]1OC(C(=O)N2CCN(Cc3ccc4c(c3)OCO4)CC2)=C[C@@H](c2ccc(Br)cc2)[C@@H]1CCCO	?	/
COc1ccc2c3c(n(C)c2c1)[C@H](CO)N(Cc1ccncc1)CC31CN(C(=O)Nc2cccc(F)c2)C1	14.0	10.0
COc1ccc(S(=O)(=O)N(C)C[C@@H]2Oc3ccc(NC(=O)CCC(F)(F)F)cc3CC(=O)N([C@H](C)CO)C[C@H]2C)cc1	7.8	0.0
C[C@H]1CN([C@@H](C)CO)C(=O)c2ccccc2-c2ccccc2CO[C@H]1CN(C)C(=O)Nc1ccnc(N2CCOCC2)c1	16.8	3.4
C[C@@H]1CN([C@@H](C)CO)C(=O)c2cccc(NC(=O)CCCCCC(=O)Nc3ccccc3N)c2O[C@H]1CN(C)C	-0.9	1.5
C[C@@H]1CCCCO[C@@H](CN(C)C(=O)c2ccccc2)[C@H](C)CN([C@@H](C)CO)C(=O)c2cc(NC(=O)CCCN(C)C)ccc2O1	-2.7	4.4
COc1ccc(-c2ccc3c(c2)O[C@@H](CN(C)Cc2ccccc2C(=O)O)[C@H](C)CN([C@H](C)CO)S3(=O)=O)cc1	13.2	11.5
C[C@@H]1CN([C@H](C)CO)C(=O)c2cc(-c3cccc(F)c3)cnc2O[C@H]1CN(C)C(=O)c1cnccn1	23.2	3.6
O=C(c1ccccn1)N1CC[C@H]2[C@H](CO)Nc3ccc(C#Cc4ccccc4)cc3[C@H]21	-24.3	-30.1
C[C@H](CO)N1C[C@H](C)[C@@H](CN(C)S(=O)(=O)c2ccccc2)Oc2c(NC(=O)NC3CCCCC3)cccc2C1=O	-15.4	-10.4
C[C@H]1CN([C@@H](C)CO)C(=O)Cc2cc(NC(=O)Nc3ccccc3)ccc2O[C@H]1CN(C)Cc1ccc(-c2ccccc2)cc1	-12.9	-11.4
C[C@@H]1CCCCO[C@H](CN(C)C(=O)Cc2ccccc2)[C@@H](C)CN([C@@H](C)CO)C(=O)c2cc(NS(=O)(=O)c3ccccc3)ccc2O1	-27.5	-22.8
COCC(=O)N1[C@H](CO)[C@H](c2ccccc2-c2cccc(F)c2)[C@@H]1C#N	3.1	6.5
CCC(=O)Nc1ccc2c(c1)C(=O)N(C)[C@@H]1CC[C@H](CC(=O)NCCc3ccncc3)O[C@H]1CO2	8.9	16.3
CS(=O)(=O)N1CC2(C1)[C@H](c1ccccc1)[C@H](CO)N2CC1CC1	6.5	11.5
C[C@H](O)C#Cc1ccc2c(c1)O[C@@H](CN(C)C(=O)C1CCC1)[C@@H](C)CN([C@@H](C)CO)S2(=O)=O	1.9	2.3
O=C(N[C@@H]1CC[C@@H](CCn2cc(-c3ccccn3)nn2)O[C@@H]1CO)c1ccncc1	1.8	4.4
C[C@@H]1CN([C@H](C)CO)C(=O)c2cccc(NC(=O)c3nc4ccccc4s3)c2O[C@@H]1CN(C)Cc1ccc(C(=O)Nc2ccccc2N)cc1	-28.8	-18.4
O=C(NC1CCC1)[C@@H]1[C@@H](CO)[C@@H]2Cn3c(ccc(C4=CCCC4)c3=O)[C@@H]2N1C(=O)C1CCC1	5.9	10.5
CC(C)NC(=O)Nc1ccc2c(c1)C(=O)N([C@H](C)CO)C[C@H](C)[C@@H](CN(C)Cc1ccc(-c3ccccc3)cc1)O2	-9.6	-7.9

Among those listed so far, these have a CF3 group:
SMILES	Vaccinia stage	Vaccinia stage Venus
CC(C)NC(=O)Nc1cccc2c1O[C@@H](CN(C)C(=O)Nc1ccc(C(F)(F)F)cc1)[C@H](C)CN([C@H](C)CO)C2=O	6.8	2.5
COc1ccc(S(=O)(=O)N(C)C[C@@H]2Oc3ccc(NC(=O)CCC(F)(F)F)cc3CC(=O)N([C@H](C)CO)C[C@H]2C)cc1	7.8	0.0

Record cards (already shown):
Record of `CCO[C@H]1OC(C(=O)N2CCN(Cc3ccc4c(c3)OCO4)CC2)=C[C@@H](c2ccc(Br)cc2)[C@@H]1CCCO` = Vaccinia stage: ?; Vaccinia stage Venus: /
Record of `C[C@H]1CN([C@@H](C)CO)C(=O)Cc2cc(NC(=O)Nc3ccccc3)ccc2O[C@H]1CN(C)Cc1ccc(-c2ccccc2)cc1` = Vaccinia stage: -12.9; Vaccinia stage Venus: -11.4

Next part:
SMILES	Vaccinia stage	Vaccinia stage Venus
CO[C@@H]1CN(C)C(=O)c2cc(NC(=O)C3CC3)ccc2OC[C@H](C)N(C(=O)C2CCCCC2)C[C@@H]1C	0.7	3.0
CCCNC(=O)C[C@@H]1CC[C@@H]2[C@@H](COc3ccc(NC(=O)c4cc(C)on4)cc3C(=O)N2C)O1	-2.5	-6.2
COc1ccc(NC(=O)Nc2ccc3c(c2)CC(=O)N([C@H](C)CO)C[C@H](C)[C@@H](CN(C)C(=O)NC(C)C)O3)cc1	10.4	3.9
O=C(N[C@H]1CC[C@@H](CCNS(=O)(=O)c2ccc(F)cc2)O[C@H]1CO)C1CCC1	13.5	9.0
C[C@H](CO)N1C[C@H](C)[C@H](CN(C)C(=O)CCCN(C)C)OCCCC[C@H](C)Oc2ccc(NC(=O)Nc3cccc4ccccc34)cc2C1=O	17.6	15.6
COc1ccc(S(=O)(=O)N(C)C[C@@H]2Oc3ccc(NS(=O)(=O)c4cccs4)cc3CC(=O)N([C@H](C)CO)C[C@@H]2C)cc1	-12.9	-8.6
COc1ccc2c3c([nH]c2c1)[C@@H](CO)N(C(=O)C1CCOCC1)CC31CCN(Cc2nccs2)CC1	18.7	10.6
C[C@@H]1CN([C@@H](C)CO)S(=O)(=O)c2ccc(Br)cc2O[C@@H]1CN(C)C(=O)c1ccccn1	1.5	-2.0
C[C@@H]1CN([C@@H](C)CO)C(=O)c2cccc(NC(=O)Nc3cccc4ccccc34)c2O[C@H]1CN(C)S(=O)(=O)c1ccc(Cl)cc1	5.9	4.8
Cc1ccc(-c2ccc3c(c2)O[C@@H](CN(C)C(=O)NC(C)C)[C@H](C)CN([C@H](C)CO)S3(=O)=O)cc1	-3.2	-7.6
C[C@@H]1CN([C@@H](C)CO)S(=O)(=O)c2ccc(C#CC3CC3)cc2O[C@H]1CN(C)C(=O)c1cnccn1	14.1	-3.1
C[C@H](CO)N1C[C@H](C)[C@@H](CN(C)C(=O)Nc2ccccc2)OCCCC[C@H](C)Oc2ccc(NS(=O)(=O)c3cccs3)cc2C1=O	5.2	5.2
C[C@H](CO)N1C[C@H](C)[C@@H](CN(C)Cc2ccc3c(c2)OCCN3C)OCc2ccccc2-c2c(n(C)c3ccccc23)C1=O	?	/
COc1ccc2c3c([nH]c2c1)[C@@H](CO)N(C(=O)c1ccc(F)cc1)CC31CN(S(=O)(=O)c2cccs2)C1	?	/
CC(C)NC(=O)N(C)C[C@@H]1Oc2ncc(-c3ccccc3F)cc2C(=O)N([C@H](C)CO)C[C@H]1C	27.3	5.5
Cc1noc(C)c1S(=O)(=O)Nc1ccc2c(c1)C(=O)N([C@@H](C)CO)C[C@@H](C)[C@H](CN(C)Cc1ccccc1)O2	3.5	1.9
C[C@H]1CN([C@@H](C)CO)C(=O)c2cc(NC(=O)Nc3ccccc3)ccc2O[C@@H]1CN(C)Cc1ccc(C(=O)O)cc1	14.8	9.7
C[C@H]1CN([C@@H](C)CO)C(=O)CCCn2nncc2CO[C@H]1CN(C)C(=O)c1ccc2ccn(C)c2c1	0.5&8.0	-2.5&0.8
COc1ccc(-c2ccc3c(c2)[C@@H]2[C@@H](CCN2S(=O)(=O)c2ccccc2C)[C@H](CO)N3)cc1	?	/
C[C@@H]1CCCCO[C@@H](CN(C)C(=O)Nc2ccc(C(F)(F)F)cc2)[C@@H](C)CN([C@H](C)CO)C(=O)c2cc(N(C)C)ccc2O1	-24.5	-18.1
CCNC(=O)[C@H]1[C@H](CO)[C@H]2Cn3c(ccc(/C=C/c4ccccc4)c3=O)[C@@H]1N2	0.6	2.2
COc1ccc(S(=O)(=O)Nc2ccc3c(c2)C(=O)N([C@H](C)CO)C[C@@H](C)[C@H](CN(C)S(=O)(=O)c2ccc(Cl)cc2)OCCCC[C@@H](C)O3)cc1	?	/
COCC#Cc1ccc2c(c1)O[C@@H](CN(C)Cc1cccnc1)[C@H](C)CN([C@@H](C)CO)S2(=O)=O	11.1	-7.7
C[C@@H]1CN([C@@H](C)CO)C(=O)CCCn2nncc2CO[C@H]1CN(C)C(=O)NC1CCCCC1	17.0&-2.4	9.9&1.1
COc1ccc2c3c([nH]c2c1)[C@@H](CO)N(Cc1ccccc1F)CC31CCN(C(=O)C2CCC2)CC1	-16.3	-8.0
SMILES	Vaccinia stage	Vaccinia stage Venus
C[C@@H]1CN([C@H](C)CO)S(=O)(=O)c2ccc(-c3ccc(C#N)cc3)cc2O[C@H]1CN(C)Cc1cccc(F)c1	?	/
C[C@H]1CCCCO[C@@H](CN(C)Cc2ccc(C(F)(F)F)cc2)[C@@H](C)CN([C@@H](C)CO)C(=O)c2cc(NS(=O)(=O)c3ccc(Cl)cc3)ccc2O1	?	/
COc1ccc(S(=O)(=O)N2CC[C@@H]3[C@@H](CO)Nc4ccc(C#Cc5cccnc5)cc4[C@@H]32)cc1	16.4	12.6
C[C@H](O)C#Cc1ccc([C@H]2[C@@H](CO)N3CCCCN(C(=O)c4ccc(F)cc4)C[C@@H]23)cc1	32.0	-0.1
O=C(C1CCCCC1)N1CC2(C1)[C@H](c1ccccc1)[C@@H](CO)N2Cc1ccccc1F	-17.3	-8.3
O=C(NC1CCCC1)N1CCCCN2[C@H](CO)[C@H](c3ccc(/C=C/c4ccccc4)cc3)[C@H]2C1	?	/
C[C@H](CO)N1C[C@H](C)[C@H](CN(C)S(=O)(=O)c2ccccc2)OCCCC[C@H](C)Oc2ccc(NS(=O)(=O)c3ccc(F)cc3)cc2C1=O	-19.2	-10.2
C[C@@H]1CN([C@@H](C)CO)C(=O)c2cccc(NC(=O)NC3CCCCC3)c2O[C@@H]1CN(C)C	-5.2	-1.8
COc1cccc(S(=O)(=O)Nc2ccc3c(c2)[C@@H]2C[C@@H](CC(=O)NCc4ccccc4F)O[C@@H](CO)[C@@H]2O3)c1	?	/
OC[C@H]1Nc2ccc(-c3ccccc3)cc2[C@@H]2[C@H]1CCN2Cc1ccccc1F	-31.4	-14.3
COc1cccc(-c2ccc([C@H]3[C@@H](CO)N4CCCCN(Cc5cncnc5)C[C@H]34)cc2)c1	-1.3	5.4
C[C@H](CO)N1C[C@H](C)[C@@H](CN(C)Cc2ccc(Oc3ccccc3)cc2)Oc2ccc(NC(=O)Nc3ccc(C(F)(F)F)cc3)cc2C1=O	-0.4	-7.6
Cc1noc(C)c1NC(=O)N[C@H]1CC[C@H](CC(=O)N2CCN(C)CC2)O[C@@H]1CO	16.0	10.6
COc1ccc(-c2ccc3c(c2)[C@@H]2[C@@H](CCN2C(=O)C2CC2)[C@@H](CO)N3C)cc1	3.6	5.7
C[C@@H]1CCCCO[C@H](CN(C)S(=O)(=O)c2ccccc2)[C@@H](C)CN([C@@H](C)CO)C(=O)c2cc(NS(=O)(=O)c3cccs3)ccc2O1	4.9	0.9
COC(=O)C[C@H]1C=C[C@H](NS(=O)(=O)c2ccc(OC)cc2)[C@H](CO)O1	6.5	6.1
C[C@@H]1CN([C@@H](C)CO)C(=O)Cc2cc(NC(=O)Nc3ccc(C(F)(F)F)cc3)ccc2O[C@@H]1CN(C)C	?	/
C[C@@H]1CN([C@@H](C)CO)C(=O)c2cc(NS(=O)(=O)c3cn(C)cn3)ccc2O[C@@H](C)CCCCO[C@H]1CN(C)C(=O)C1CCCCC1	-1.6	-4.7
COc1ccc(C#Cc2ccc3c(c2)[C@@H]2[C@@H](CCN2C(=O)C2CCC2)[C@@H](CO)N3)cc1	-6.8	-3.7
CC(C)CC#Cc1cnc2c(c1)C(=O)N([C@@H](C)CO)C[C@H](C)[C@@H](CN(C)C(=O)Cc1ccncc1)O2	-21.3	-20.8
C[C@H]1CN([C@@H](C)CO)C(=O)Cc2cc(NS(C)(=O)=O)ccc2O[C@@H]1CN(C)Cc1ccc(-c2ccccc2)cc1	?	/
Cc1noc(C)c1S(=O)(=O)Nc1ccc2c(c1)C(=O)N([C@@H](C)CO)C[C@@H](C)[C@@H](CN(C)S(=O)(=O)c1cn(C)cn1)OCCCC[C@@H](C)O2	23.4	12.9
O=C(C[C@@H]1C=C[C@@H](NS(=O)(=O)c2ccc(F)cc2)[C@@H](CO)O1)NCc1ccc(Cl)c(Cl)c1	-22.3	-7.4
Cc1ccc(S(=O)(=O)N(C)C[C@H]2OCCCC[C@H](C)Oc3ccc(NC(=O)c4ccncc4)cc3C(=O)N([C@H](C)CO)C[C@H]2C)cc1	8.7	3.6
COCC(=O)N1C[C@H](C)[C@@H](OC)CN(C)C(=O)c2ccc(NC(=O)c3ccc(F)cc3)cc2OC[C@H]1C	0.1	-11.5
O=C(O)[C@H]1[C@H](CO)[C@H]2Cn3c(ccc(-c4cncnc4)c3=O)[C@@H]1N2C(=O)NC1CCCC1	-0.7	1.9
CC(C)NC(=O)N[C@@H]1CC[C@@H](CCn2cc(-c3ccccc3)nn2)O[C@H]1CO	-7.9	1.4
COc1ccc(NC(=O)N2CCCCN3[C@H](CO)[C@@H](c4ccc(-c5ccccc5F)cc4)[C@@H]3C2)cc1	-33.2	-26.7
